AID504770 – growth inhibitors of E. coli YBA685 in a screen for V. cholerae RctB (chromosome II replication) inhibitors; z-score (concentration not given with the values); E. coli YBA685 rctB-dependent plasmid, OD600 growth, 3 h; stronger effect = lower value; 130,000 tested, 0.27% active;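 active = z-score under -2 on both plates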;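 note: wells of about 30 µL received 100 nL stock; score is relative to mean and SD of the test wells; the first replicate is given; strong numbers were not always called active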
Ba CapD inh – inhibitors of Bacillus anthracis CapD enzyme | purified CapD enzyme, fluorescence intensity read-out; stronger effect = lower value; some hits fall short of the stated cut | z-score (concentration not given with the values) | 140,000 tested, 0.23% active;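 active = z-score under -4 in either of two replicates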;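 note: stock transfer was 100 nL into about 40 µL; score is relative to mean and spread of the plate; one replicate is shown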
* = called active by the depositor.

For CCOC(=O)C1=C(C)N=c2s/c(=C\c3cccc(OC)c3)c(=O)n2C1c1ccc(OC)c(OC)c1 (stereo not drawn) the results were Ba CapD inh -0.185.
CCN(CC)C(=O)c1ccccc1C was read as AID504770 -0.45.
`CCN=C1S/C(=C\c2ccc(OC)c(OC)c2)C(=O)N1CC` gave AID504770 0.65.
For Cc1c(C(=O)Nc2ccccc2C(F)(F)F)sc2nc(SCc3cccc([N+](=O)[O-])c3)n(CCc3ccccc3)c(=O)c12 the results were Ba CapD inh 0.015.
`CCCNC(=O)C1CN(C(=O)c2cnc(C)cn2)c2ccccc2O1` (stereo not drawn) gave AID504770 0.4.
For COc1ccc(NC(=O)c2ccc3c(=O)n(-c4ccc(OC)cc4OC)c(=S)[nH]c3c2)c(OC)c1 the results were Ba CapD inh -0.32.
Cc1cccc(CO/N=C/c2c(-c3ccc(Cl)cc3)nc3cc(C)ccn23)c1 was read as Ba CapD inh 53.8.
NC(=O)C1(N2CCCCC2)CCN(S(=O)(=O)c2ccc(Cl)s2)CC1 was read as AID504770 -1.35 and Ba CapD inh -0.905.
`CC(=O)Nc1ccc(S(=O)(=O)N2CCC(NC(C)=O)(c3cccc(F)c3)CC2)cc1` gave AID504770 -0.5.
`Cc1nc2c(ccc3nc(NC(=O)c4ccco4)sc32)s1` gave AID504770 0.1 and Ba CapD inh 2.12.
Screening CN(C(=O)COc1ncnc2sccc12)c1ccccc1 returned AID504770 -1.
For O=c1cc(NCCC2=CCCCC2)c2ccccc2o1 the results were AID504770 0.75 and Ba CapD inh 1.1.
Screening Cn1c(=O)[nH]c(=O)c2c1nc1n2CC(c2ccccc2)=N1 returned AID504770 -1.5.
Screening CCc1ccc(-n2nc3cc(C)c(NC(C)=O)cc3n2)cc1 returned AID504770 0 and Ba CapD inh 34.3.
CCOC(=O)C1=C(C)NC2=C(C(=O)CC(c3ccco3)C2)C1c1ccc(C(F)(F)F)cc1 (stereo not drawn) was read as AID504770 -0.65 and Ba CapD inh 65.9.
`O=S(=O)(c1ccccc1)N(C1CC1)C1CCN(Cc2ccccc2)CC1` gave Ba CapD inh -0.835.
`COCc1c(C(=O)OC2CCOC2=O)oc2ccccc12` (stereo not drawn) gave AID504770 -0.5.
For c1cncc(-c2nc(NCCSCc3ccco3)c3ccccc3n2)c1 the results were AID504770 0.9.
O=C(CSc1nc2sc3c(c2c(=O)[nH]1)CCCC3)NCCCn1ccnc1 was read as Ba CapD inh -0.26.
`Cc1cc(C)c(C(N)=O)c(SCC(=O)Nc2c(C)n(C)n(-c3ccccc3)c2=O)n1` gave AID504770 0.
`COC(=O)CNc1cc[nH]c(=O)c1C#N` gave AID504770 -1.05 and Ba CapD inh 0.045.
`CNC(=O)NCc1ccc(-c2csnn2)cc1` gave AID504770 -0.5 and Ba CapD inh -0.08.
For O=c1cccc2n1CC1CC2CN(C(c2ccccc2)c2sc3ncnn3c2O)C1 (stereo not drawn) the results were AID504770 -0.1.
`CSc1nnnn1-c1c(C)cc(C)cc1C` gave AID504770 0.9 and Ba CapD inh 0.17.
Screening CN(C)S(=O)(=O)c1cccc(COC(=O)CN2CCCCCC2=O)c1 returned AID504770 0.55.
For O=C(NCc1noc2ccccc12)Nc1nc2ccccc2s1 the results were AID504770 -0.3 and Ba CapD inh -1.
Screening CCN(CC)C(=O)c1cnn(-c2ccccc2)c1NC(=O)c1ccco1 returned AID504770 0.75 and Ba CapD inh 0.41.
COC(=O)c1cnc(Oc2ccc(N)cc2)cc1C(F)(F)F was read as AID504770 -0.4 and Ba CapD inh -1.18.
`N#Cc1ccc(Cn2cc(Br)ccc2=O)cc1` gave AID504770 -0.5.
`CC(C)(C)c1ccc(C(=O)c2c[nH]c(C(=O)NCC3CCCO3)c2)cc1` (stereo not drawn) gave Ba CapD inh -0.315.
`Cc1nc(C2CC2)ncc1-c1nsc(Nc2ccccc2)n1` gave AID504770 0 and Ba CapD inh -0.05.
Screening N#CCOc1ccc(C(F)(F)F)cn1 returned Ba CapD inh -0.06.
Screening CCOC(=O)N1CCN(C(=S)NC(=O)c2cc(Br)ccc2Cl)CC1 returned AID504770 0.
CCN(CC)S(=O)(=O)c1ccc(NCCc2ccccn2)nc1 was read as AID504770 -0.05.
Screening O=C(c1ccco1)N(Cc1ccccc1)Cc1cn(-c2ccccc2)nc1-c1cccs1 returned AID504770 1.7 and Ba CapD inh -0.39.
For CN1C(=O)CN=C(c2ccccc2)c2cc(Br)ccc21 the results were Ba CapD inh -0.3.
Screening CCOC(=O)c1cc(-c2ccc(C)cc2)n(CC(=O)NCC2CCCO2)c1C (stereo not drawn) returned AID504770 -0.8 and Ba CapD inh -0.405.
`O=C(Nc1ccc(F)cc1F)Nc1nc(-c2ccc(F)cc2)cn1/N=C/c1ccc(Cl)cc1Cl` gave Ba CapD inh -0.22.
For Cc1cc(=O)[nH]c(SCC(=O)N2CCCCC2)n1 the results were AID504770 2.15.
CC(=O)NCCNS(=O)(=O)c1c(C)c(C)cc(C)c1C was read as Ba CapD inh -0.575.
COc1ccc(Oc2ncccc2NC(=O)c2ccc(OC)cc2)cc1 was read as AID504770 -0.35 and Ba CapD inh -0.255.
Screening N#C/C(C(=O)NCc1ccco1)=c1/s/c(=C/c2ccncc2)c(=O)n1-c1ccccc1 returned AID504770 1.
CC(C)(C)c1ccc(Cn2c3ccc(F)cc3c3nc4cc(F)ccc4nc32)cc1 was read as Ba CapD inh 2.5.
For CC(C)CC(=O)O/N=C/c1ccc(S(=O)(=O)c2ccc(Cl)cc2)nc1 the results were Ba CapD inh -0.215.
For COc1ccc(C(CC(=O)c2cccs2)SCc2ccco2)cc1 (stereo not drawn) the results were Ba CapD inh 0.12.

An excerpt from above in order of formula weight, descending.
`O=C(Nc1ccc(F)cc1F)Nc1nc(-c2ccc(F)cc2)cn1/N=C/c1ccc(Cl)cc1Cl` gave Ba CapD inh -0.22.
Screening O=C(c1ccco1)N(Cc1ccccc1)Cc1cn(-c2ccccc2)nc1-c1cccs1 returned AID504770 1.7 and Ba CapD inh -0.39.
Screening N#C/C(C(=O)NCc1ccco1)=c1/s/c(=C/c2ccncc2)c(=O)n1-c1ccccc1 returned AID504770 1.
CC(C)(C)c1ccc(Cn2c3ccc(F)cc3c3nc4cc(F)ccc4nc32)cc1 was read as Ba CapD inh 2.5.
Screening CCOC(=O)c1cc(-c2ccc(C)cc2)n(CC(=O)NCC2CCCO2)c1C (stereo not drawn) returned AID504770 -0.8 and Ba CapD inh -0.405.
For CC(C)CC(=O)O/N=C/c1ccc(S(=O)(=O)c2ccc(Cl)cc2)nc1 the results were Ba CapD inh -0.215.
For COc1ccc(C(CC(=O)c2cccs2)SCc2ccco2)cc1 (stereo not drawn) the results were Ba CapD inh 0.12.
`CC(C)(C)c1ccc(C(=O)c2c[nH]c(C(=O)NCC3CCCO3)c2)cc1` (stereo not drawn) gave Ba CapD inh -0.315.
COc1ccc(Oc2ncccc2NC(=O)c2ccc(OC)cc2)cc1 was read as AID504770 -0.35 and Ba CapD inh -0.255.
CCN(CC)S(=O)(=O)c1ccc(NCCc2ccccn2)nc1 was read as AID504770 -0.05.
For CN1C(=O)CN=C(c2ccccc2)c2cc(Br)ccc21 the results were Ba CapD inh -0.3.
CC(=O)NCCNS(=O)(=O)c1c(C)c(C)cc(C)c1C was read as Ba CapD inh -0.575.
`N#Cc1ccc(Cn2cc(Br)ccc2=O)cc1` gave AID504770 -0.5.
For Cc1cc(=O)[nH]c(SCC(=O)N2CCCCC2)n1 the results were AID504770 2.15.
Screening N#CCOc1ccc(C(F)(F)F)cn1 returned Ba CapD inh -0.06.

The listing continues:
Cc1n[nH]c(C)c1S(=O)(=O)Nc1ccc(Br)cc1F was read as AID504770 0.8.
Screening Cn1nc(C(F)(F)F)c(/C=N/O)c1SCc1ccc(Cl)cc1 returned Ba CapD inh -0.52.
For O=S(=O)(NN1CCOCC1)c1cccc2nonc12 the results were AID504770 -0.5 and Ba CapD inh -0.075.
For C=CCNc1nc(-c2cc3cc(Cl)ccc3o2)cs1 the results were Ba CapD inh 9.93.
`Cn1nc(OCC(=O)O)cc1C(F)(F)F` gave AID504770 0.15 and Ba CapD inh 1.19.
`CSc1nn(-c2ccccc2)cc1-c1nc(C(C)(C)C)cs1` gave AID504770 -0.9 and Ba CapD inh 40.2.
Screening CCn1cc(CCCC(=O)O)c2ccccc21 returned AID504770 -0.5 and Ba CapD inh 0.16.
CC1(c2ccccc2)COC2(OC1)C(=O)Nc1ccccc12 (stereo not drawn) was read as Ba CapD inh -0.01.
COc1ccc(C(=O)CC2(O)C(=O)N(CN3CCOCC3)c3ccc(Br)cc32)cc1 (stereo not drawn) was read as AID504770 -0.6 and Ba CapD inh -0.91.
`Clc1ccc(CSC2=NCCN2)cc1` gave Ba CapD inh 0.385.
For COc1ccc(N2CCN(C(=O)CSc3nc4[nH]ncc4c(=O)n3-c3cccc4ccccc34)CC2)cc1 the results were Ba CapD inh -0.24.
For Cn1c(=O)cc(N)n(Cc2ccccc2)c1=O the results were AID504770 -1.25.
Screening NC(C(=O)O)C1CCCCC1 (stereo not drawn) returned AID504770 -0.6 and Ba CapD inh -0.85.
For CCOc1ccc2nc(SCC(=O)NCc3ccccc3)[nH]c2c1 the results were AID504770 -0.25 and Ba CapD inh 0.54.
For CN(C)c1ccc(/C=C/C=C2/SC(=O)N(CC(=O)N3CCCC3)C2=O)cc1 the results were AID504770 -0.25.
Screening COc1ccc2c(c1)c(CC(=O)NCc1cccnc1)c(C)n2C(=O)c1ccc(Cl)cc1 returned Ba CapD inh -0.755.
`CN(CCO)c1ccc(C(F)(F)F)cn1` gave AID504770 -0.1 and Ba CapD inh 3.45.
`CCC(C)c1ccc(C2=Nn3c(nnc3C(C)C)SC2)cc1` (stereo not drawn) gave AID504770 -0.45.
O=C(c1ccc(F)cc1)C1CCN(C(=O)c2cc(=O)n(-c3ccccc3)[nH]2)CC1 was read as Ba CapD inh 0.08.
For CCOC(=O)CSCCOc1ccc(C=C2C(=O)NC(=S)NC2=O)cc1OC the results were Ba CapD inh -0.035.
For Cn1c(=O)c2[nH]c(SCc3ccc(Cl)c(Cl)c3)nc2n(C)c1=O the results were AID504770 0.45.
`N#CC1=C(Nc2ccccc2Cl)SC(c2ccncc2)NC1=O` (stereo not drawn) gave AID504770 -0.75 and Ba CapD inh -0.31.
Screening COc1ccc(S(=O)(=O)n2nnc3cc(Cl)ccc32)cc1OC returned Ba CapD inh 0.45.
For CCc1noc(C)c1C(=O)N1CCN(S(=O)(=O)c2ccccc2)CC1 the results were AID504770 -0.5.
For CCOC(=O)c1sc2nc(SCC(=O)C(C)(C)C)n(Cc3ccccc3Cl)c(=O)c2c1C the results were AID504770 -3.65 and Ba CapD inh -0.24.
For c1ccn(-c2nonc2-c2nnc(-c3nonc3-n3cccc3)o2)c1 the results were AID504770 1.55 and Ba CapD inh 0.485.
CCN(CC)c1ccc(/C=N/N2CCN(Cc3ccc(Cl)cc3)CC2)c(O)c1 was read as AID504770 -0.85 and Ba CapD inh 0.1.
For Cc1nc(-c2nnc(SCC(=O)Nc3ccc(Cl)cc3)n2C)cs1 the results were AID504770 -0.2 and Ba CapD inh 0.395.
Screening CC(C)C(C)(C#N)NC(=O)CSc1nnc2ccccn12 (stereo not drawn) returned AID504770 0.25.
Screening O=C(/C=C/c1ccco1)Nc1cccc(NC(=O)/C=C/c2ccco2)n1 returned AID504770 -0.55 and Ba CapD inh 0.96.
Screening CN(C)S(=O)(=O)c1ccc(-c2cn3cc(Cl)ccc3n2)cc1 returned Ba CapD inh 3.4.
CCCCCCC(=O)Nc1cccc(C(=O)N/N=C/c2ccc3c(c2)OCO3)c1 was read as Ba CapD inh 34.1.
`CC(Oc1ccc(F)cc1)C(=O)Nc1ccccc1Br` (stereo not drawn) gave AID504770 -1.15 and Ba CapD inh -0.235.
Screening CCOC(=O)CSC1=C(C#N)C(C)C2=C(CCCC2=O)N1 (stereo not drawn) returned AID504770 -0.15 and Ba CapD inh 0.35.
Screening O=C(Cc1c[nH]c2ccccc12)N/N=C/c1ccnc2ccccc12 returned Ba CapD inh 2.2.
CCc1nc2ccccc2n1C(=O)CCC(=O)O was read as AID504770 1.65 and Ba CapD inh 0.63.
For CN1C(=O)c2ccccc2C(C(=O)N2CCCCCC2)C1c1cccs1 (stereo not drawn) the results were AID504770 -1.25 and Ba CapD inh -0.185.
For CCN(CC)C(=O)Cc1cccs1 the results were AID504770 -0.35 and Ba CapD inh 0.165.
COc1cccc(C(=O)OCc2ccccc2C(F)(F)F)c1O was read as AID504770 -0.45.
For CCn1c2ccccc2c2cc(NS(=O)(=O)c3ccccc3)ccc21 the results were AID504770 -0.55 and Ba CapD inh 3.72.
Cc1nc2c(c(C)c1CCC(=O)NCCOc1cccc(C(F)(F)F)c1)c(=O)n(C)c(=O)n2C was read as AID504770 0.15 and Ba CapD inh 0.45.
Screening O=C(NC(NCc1ccco1)(C(F)(F)F)C(F)(F)F)c1cccnc1 returned AID504770 -0.25 and Ba CapD inh 1.92.
Screening Clc1ccc(CNc2nc(Cl)nc(NCCN3CCOCC3)n2)cc1 returned AID504770 0.4 and Ba CapD inh -0.225.
COC(=O)c1sccc1Oc1cc(C(F)(F)F)nc2c(C(=O)OC)scc12 was read as AID504770 -0.7 and Ba CapD inh 15.6.
Screening CCc1ccc(NC(=O)CSc2ccccn2)cc1 returned AID504770 -0.95.
Screening COc1ccc(C)cc1NC(=O)Cc1cn(C)c2ccccc12 returned AID504770 1.5 and Ba CapD inh -0.61.
`CN(CCC#N)c1ccc(C=NCCCN=Cc2ccc(N(C)CCC#N)cc2)cc1` gave Ba CapD inh 1.17.
CCOC(=O)CS(=O)(=O)c1ccc(C(F)(F)F)cn1 was read as AID504770 -0.55 and Ba CapD inh -0.67.
O=C(CCSCc1ccc(Cl)cc1)Nc1cccnc1 was read as AID504770 -0.6 and Ba CapD inh -0.07.
CCOC(=O)c1[nH]c2c(c1C)C(=O)CCC2 was read as AID504770 -0.25.
`CC1(C)CC(=O)C2=C(C1)c1c(ccc3ccccc13)NC2c1cc([N+](=O)[O-])c(N2CCOCC2)cc1N1CCOCC1` (stereo not drawn) gave Ba CapD inh 5.7.

From PubChem
